MT1-MMP act inh – MT1-MMP (human) activation inhibition; P50281; HT1080 RFP-PRO-GFP cells, GFP/RFP ratio fluorescence, overnight; percent of plate control window, DMSO zero; GFP/RFP ratio change, % at 20 µM; hit rate 0.061% among 360,000; AID 651647;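 active = GFP/RFP ratio change of at least 30% with cell ATP level not reduced by more than half and red fluorescence within 50% of control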; note: strong numbers were not always called active
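Test system: HT1080 RFP-PRO-GFP cells; Benchmarks: DMSO and RFP-L50D-GFP cell wells; Timing: cells overnight before dosing, compound overnight, 37 °C, 5% CO2; Compound: one 20 µM compound dose with 1% DMSO; Read-out: GFP/RFP fluorescence ratio.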
HIV Env fusion – blocks HIV Env-driven cell-cell fusion | HeLa-JRFL Env/CEM21 cell fusion, luciferase | inhibition, % at 12.3 µM | hit rate 1.1% among 360,000 | AID 651610;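 active = mean replicate inhibition score of at least 50 and every replicate individually at or above 50; inconclusive = only one of the two criteria met; inactive = mean below 50 and not all replicates reaching 50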;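 note: 0% = plate neutral controls and 100% = maraviroc near 300 nM; one replicate is shown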
Yeast UUG start – yeast start codon fidelity modulation; hit rate 0.13% among 350,000; activity score, % at 18.7 µM; S. cerevisiae UUG-firefly luciferase reporter, luminescence/redox ratio;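 active = replicate mean at a twofold rise or more, about +100% in these data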;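 note: firefly luciferase made from a UUG start codon reports start codon fidelity; reporter light over untreated wells divided by growth signal over untreated wells; some hits fall short of that in this replicate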
PABP FP inh – PABP-poly(A) binding inhibition | P11940 | PABP-poly(A) RNA binding, fluorescence polarization | inhibition, % at 35 µM | hit rate 1% among 290,000 | AID 2014;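 active = 50% or more with normal probe brightness, or confirmed in later tests; inconclusive = above 50% with abnormal brightness, or retests that disagree; inactive = below 50% or failed in later tests; about a fifth of its hits are not listed in these tables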;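 note: calls also rest on retests at 20 µM and on dose response follow-up; controls were probe without protein and protein plus probe with vehicle; some compounds called inactive have numbers as strong as hits; many hits fall short of the cut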
Target sequence (P11940 whole entry, looked up): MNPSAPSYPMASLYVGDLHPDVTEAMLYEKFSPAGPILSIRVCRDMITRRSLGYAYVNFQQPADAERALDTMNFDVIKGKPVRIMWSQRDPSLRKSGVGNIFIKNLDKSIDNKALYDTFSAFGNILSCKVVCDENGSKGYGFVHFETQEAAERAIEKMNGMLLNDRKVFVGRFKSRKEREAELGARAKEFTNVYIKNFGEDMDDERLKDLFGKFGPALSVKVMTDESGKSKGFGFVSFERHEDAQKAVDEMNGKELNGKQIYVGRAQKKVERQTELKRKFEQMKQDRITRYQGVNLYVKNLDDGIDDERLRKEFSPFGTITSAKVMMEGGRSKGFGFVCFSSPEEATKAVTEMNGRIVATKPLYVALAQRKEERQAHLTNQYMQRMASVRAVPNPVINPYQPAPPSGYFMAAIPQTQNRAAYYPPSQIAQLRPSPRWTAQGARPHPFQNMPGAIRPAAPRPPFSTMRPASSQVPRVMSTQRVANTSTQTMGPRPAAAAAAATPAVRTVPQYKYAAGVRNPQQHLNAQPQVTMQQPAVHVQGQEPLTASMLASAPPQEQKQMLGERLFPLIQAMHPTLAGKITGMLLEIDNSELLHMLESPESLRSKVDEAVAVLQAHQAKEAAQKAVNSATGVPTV
Rce1 inhib – yeast Ras-converting enzyme inhibition; Q03530; yeast membranes, quenched prenylated peptide cleavage fluorescence; AID 2563; hit rate 0.27% among 290,000; calls only;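 active = fall in fluorescence gain of 50% or more versus controls, with final raw signal at or below 3038400; inconclusive = same 50% fall but final raw signal above 3038400; inactive = fall in fluorescence gain under 50%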;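 note: plate controls were neutral control wells for no effect and wells lacking membranes for full effect; tested at 10 µM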
Target sequence (Q03530 whole entry, looked up): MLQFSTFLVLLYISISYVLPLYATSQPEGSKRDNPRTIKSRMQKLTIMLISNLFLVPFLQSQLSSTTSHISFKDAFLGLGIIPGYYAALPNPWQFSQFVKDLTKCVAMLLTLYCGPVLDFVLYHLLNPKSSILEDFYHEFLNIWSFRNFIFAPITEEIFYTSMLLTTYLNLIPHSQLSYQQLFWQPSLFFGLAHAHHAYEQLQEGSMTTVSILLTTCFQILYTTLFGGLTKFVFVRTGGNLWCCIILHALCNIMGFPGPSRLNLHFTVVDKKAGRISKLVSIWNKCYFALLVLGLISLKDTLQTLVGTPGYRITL
eIF4H FP inh – inhibitors of RNA binding by human eIF4H; eIF4H fluorescence polarization binding assay; inhibition, % at 35 µM; hit rate 0.94% among 290,000; AID 2012;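 active = 50% or more with normal probe brightness, or confirmed in later tests; inconclusive = above 50% with abnormal brightness, or retests that disagree; inactive = below 50% or failed in later tests; about a fifth of its hits are not listed in these tables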;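 note: calls also rest on retests at 20 µM and on dose response follow-up; 0% = protein and probe with vehicle and 100% = probe without protein; strong numbers were not always called active; many hits fall short of the cut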
CSC inhib – blocks cancer stem cells; AID 2717; hit rate 1.1% among 300,000; inhibition, % at 7.5 µM; cancer stem cell-like cells viability, luminescence;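 active = mean at 75% or more and at least half the replicates too; inconclusive = mean and replicates disagree; tested in HMLE shEcad cells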;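 note: 0% = median of negative and 100% = median of positive control wells; the first replicate is given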
eIF4H FP inh retest – recorded beside eIF4H FP inh, whose call it bears; inhibition, %; compound at 20 µM; confirmation average;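 mean of two retest wells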
PABP FP inh retest – recorded beside PABP FP inh, whose call it bears; inhibition, %; compound at 20 µM; confirmation repeats;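 mean of two retest wells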
MT1-MMP act inh RFP – second read-out of MT1-MMP act inh, no call of its own (marks repeat the call); RFP signal change, %; measured here: RFP expression control read;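 0 = vehicle wells; hits needed this value within 50% of zero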
The depositor's hits bear a star; i = inactive; ? = inconclusive; . = not tested or not shown; & = joins results of further samples.

SMILES	MT1-MMP act inh	MT1-MMP act inh RFP	HIV Env fusion	Yeast UUG start	PABP FP inh	Rce1 inhib	eIF4H FP inh	CSC inhib	others
CCc1ccc(C(=O)COC(=O)c2ccco2)cc1	-1	-2	-7	-81	38	i	0	-7
CC(C)(C)CC(=O)Nc1cc(S(=O)(=O)N2CCOCC2)ccc1N1CCCC1	2	3	6	-19	-49	i	-18	-2
CC(=O)c1cc(F)c(N2CCN(C(=O)c3ccco3)CC2)cc1C	4	-4	.	7	4	i	2	-8
C=C(C)CNC(=S)NN=C1c2ccccc2-c2ccccc21	0	-2	.	.	4	i	9	54
NS(=O)(=O)c1ccc(N2CCCCCC2)c([N+](=O)[O-])c1	-2	-3	8	.	-4	i	-16	2
CSc1nsc(/C=C/Nc2ccc(O)cc2C)c1C#N	2	68	-1	-4	4	i	?	27
COc1ccc(N(CC(=O)Nc2cccc(C)c2)S(=O)(=O)c2c(C)n[nH]c2C)cc1	-3	-3	19	-7	-4	i	-6	14
O=C(c1ccco1)[C@@H]1[C@@H]2C(=O)N(c3ccccc3)C(=O)[C@@H]2C2c3ccccc3C=CN21 (some centres not stated)	-52	5	-12	.	34	i	54	-5	eIF4H FP inh retest=25;PABP FP inh retest=34
O=C1C2ON(c3ccccc3)C(c3ccncc3)C2C(=O)N1c1ccc(N2CCOCC2)cc1 (configuration not stated)	-1	0	-2	-5	4	i	-4	4
COC(=O)c1ccc(CSc2nnc(Nc3ccc(C)cc3)s2)o1	2	1	.	-21	-13	i	6	7
Cc1ccc(NC(=O)Nc2nnc(-c3ccncc3)s2)cc1C	-17	-37	6	.	7	i	53	36	eIF4H FP inh retest=-9;PABP FP inh retest=2
Cc1nc2ccc(NC(=O)c3cccc(S(=O)(=O)N4CCOCC4)c3)cc2s1	6	-11	-1	-19	.	.	.	-13
CCc1nnc(SC(C)C(=O)Nc2nccs2)n1C (configuration not stated)	-3	1	0	-15	-1	i	-1	-8
Cc1cccc(NC(=O)CNC(=O)COC(=O)CCS(=O)(=O)c2ccccc2)c1C	-5	-1	.	-4	-7	i	-6	7
COC(=O)c1ccc(CSc2nnc(CNC(=O)c3ccccc3F)o2)o1	-3	-1	-1	-3	-9	i	7	-3
C(=C1/CCCC2=C1Nc1ncnn1C2c1ccccc1)/c1ccccc1 (configuration not stated)	.	.	.	.	-10	i	0	41
CCCCN(CC)Cc1ccc(CNC(=O)Nc2ccccc2)o1	-4	2	.	-20	-7	i	-6	23
COc1ccc(CC(=O)OCC(=O)N(CC(C)C)c2c(N)n(Cc3ccccc3)c(=O)[nH]c2=O)cc1	-6	2	.	.	.	i	.	-2
COCCN1C=C2C(=O)C(C)(OC(=O)C3CCCC3)C(=O)C(c3ccccc3)=C2C=C1CCCC(=O)OC (configuration not stated)	-2	4	-56	-6	2	i	5	-1
COc1ccc(S(=O)(=O)Nc2ccc3c(c2)C(=O)N([C@H](C)CO)C[C@H](C)[C@@H](CN(C)S(=O)(=O)c2c(C)noc2C)O3)cc1	4	2	-24	-3	.	.	.	-17
CCOC(=O)C(NCc1ccccc1OC)(NC(C)=O)C(F)(F)F (configuration not stated)	-2	-5	-18	-15	10	i	12	19
CCOC(=O)[C@@H]1[C@H]2COc3cc(OC)ccc3[C@H]2N2C(=O)N(c3ccc(C)cc3)C(=O)[C@]12C	8	3	-42	-15	.	.	.	-11
COc1ccc(S(=O)(=O)NCC2CCCN(C(=O)c3cccnc3C)C2)cc1 (configuration not stated)	1	-1	17	.	1	i	1	-13
C[C@H](CO)N1C[C@H](C)[C@@H](CN(C)C(=O)NC2CCCCC2)Oc2ncc(Br)cc2C1=O	3	3	-4	-6&-8	.	.	.	.
CCN(CC(=O)NCc1cccs1)c1nnnn1-c1ccccc1	-1	-1	6	3	4	i	-2	8
CC1=NN(C(N)=S)C(=O)C1N=Nc1c(Br)cc(Br)cc1Br (configuration not stated)	10	-1	6	-35	11	i	16	77*
O=C(Nc1ccc(OCC(=O)N2CCC(Cc3ccccc3)CC2)cc1)c1ccco1	-2	-5	14	-2	-1	i	-8	44
Cc1ccc(S(=O)(=O)N2CC(C)C(=O)CC2C)cc1 (configuration not stated)	1	3	10	-8	7	i	6	3
CCc1ccc(OCC(O)CN2CCN(c3ccccn3)CC2)cc1 (configuration not stated)	2	4	1	-16	5	i	-10	10
COc1ccc(NC(=O)N(C)C[C@H]2Oc3ccc(NC(=O)Cc4ccccc4)cc3C(=O)N([C@H](C)CO)C[C@@H]2C)cc1	0	4	-12	5&5	.	.	.	.
CC(=O)c1sc(N2CCOCC2)nc1-c1ccccc1	0	1	-2	-14	-7	i	-6	0
COc1ccc(N=C2SC(CC(=O)Nc3ccccc3OC)C(=O)N2Cc2ccco2)cc1 (configuration not stated)	3	-3	-6	.	-10	i	4	4
CC(C)CCn1cnc2c(cnn2-c2ccc(F)cc2)c1=O	4	-9	.	-18	-5	i	3	10
O=C(N/N=C/c1ccccc1)c1ccc(CN2C(=O)c3cccc4cccc2c34)cc1	0	2	-28	.	-8	i	-8	49
CCOc1cccc(CN2CCCC(CNC(=O)c3cccc(OC)c3OC)C2)c1 (configuration not stated)	-2	-4	53	6	-3	i	6	-5
Cn1c(C(=O)NCCCN2CCOCC2)cc2c(=O)n(C)c3ccccc3c21	1	3	-29	-5	-1	i	-9	11
Cc1cc(C)n2ncc(C(=O)Nc3ccc4c(c3)OCO4)c2n1	7	3	.	-14	-1	i	-1	-10
O=S1(=O)C[C@H](N2CCN(CCO)CC2)[C@@H](COCc2ccccc2)N1	1	1	-19	-10	.	.	.	.
CN(C(=O)COC(=O)c1ccc(Cl)c(N)c1)c1ccccc1	1	0	-11	-5	6	i	-1	-7
CC(Oc1ccc(Cl)cc1)c1ccnc(N)n1 (configuration not stated)	1	2	-4	.	8	i	1	-15
O=C(NCCc1cnccn1)C1CCC(=O)N(Cc2ccc(Cl)cc2)C1 (configuration not stated)	0	6	0	-10	-2	.	-9	2
COc1ccc2cc(C(=O)N3CCN(c4ccccc4F)CC3)[nH]c2c1	4	1	-8	3	5	i	-6	7
CC(=O)Oc1ccccc1Cn1c(C)c(C(=O)N(C)Cc2ccc(F)cc2)sc1=O	4	-15	26	-12	.	.	.	.
CC(C)NC(=O)C1(C)CCN1Cc1ccc(Cl)cc1 (configuration not stated)	4	5	-23	-16	.	.	.	.
COc1ccc(NC(=O)c2cc3c(s2)CCC(C)C3)cc1S(=O)(=O)N1CCOCC1 (configuration not stated)	-5	-25	28	.	-8	i	4	11
CCOC(=O)CCCN(c1[nH]c(C)c(C)c1C#N)S(=O)(=O)c1ccc(C)cc1	0	0	-9	-6	.	.	.	.
CCCOC(=O)Nc1ccc(S(=O)(=O)Nc2ncccn2)cc1	3	7	7	-14	-5	i	-8	6
CN1C(=O)N(C)C2(c3ccccc3)Nn3c(s/c(=C/c4ccco4)c3=O)=NC12c1ccccc1 (configuration not stated)	-10	-5	24	-16	43*	i	50	4	eIF4H FP inh retest=37;PABP FP inh retest=65*
COc1ccc(-n2nc3c(c2NC(=O)c2ccc4c(c2)OCO4)CS(=O)(=O)C3)cc1	-5	-4	-7	-8	.	i	.	-15
COc1ccc(-c2nc(SCC(=O)N3CCOCC3)n[nH]2)cc1	0	3	.	-10	16	i	-3	4
CC(=O)NC(=S)Nc1ccc(NC(=O)c2cccs2)cc1	4	3	-31	.	4	i	6	-18
COc1ccc(S(=O)(=O)N2CCCC2CNC(=O)C(=O)NCc2ccccc2)cc1 (configuration not stated)	1	-1	3	-7	.	i	.	-8
CC(C)(C)NC(=S)N1CCC(C(=O)c2ccc(F)cc2)CC1	-2	0	16	-13	-2	.	-7	11
O=c1c2nncn2c2cccnc2n1CCNc1ncc(C(F)(F)F)cc1Cl	4	-3	8	-13	-7	i	0	-7
CCSc1nnc(NC(=O)c2cccnc2)s1	1	1	-8	.	-4	i	3	.
CN(C)C(=O)C[n+]1ccc(C(N)=O)cc1	0	5	0	.	-4	i	-4	8
COc1ccc(NC(=O)CN2CC(C)OC(C)C2)cc1Cl (configuration not stated)	3	5	7	.	-2	i	2	-9
O=S(=O)(Nc1cccc(-n2cnnn2)c1)c1cc(Br)ccc1Br	1	-2	4	-8	8	i	-2	-7
COC(=O)Nc1ccc(S(=O)(=O)n2cnc3ccccc32)cc1	1	8	-2	-4	9	i	7	-8
O=C(O)c1cccc2c3c([nH]c12)CCCC3	-2	3	-9	-15	-3	i	-14	-11

Fetched by compound from above, 3 records:
SMILES	MT1-MMP act inh	MT1-MMP act inh RFP	HIV Env fusion	Yeast UUG start	PABP FP inh	Rce1 inhib	eIF4H FP inh	CSC inhib	others
CCc1nnc(SC(C)C(=O)Nc2nccs2)n1C (configuration not stated)	-3	1	0	-15	-1	i	-1	-8
COc1ccc(N=C2SC(CC(=O)Nc3ccccc3OC)C(=O)N2Cc2ccco2)cc1 (configuration not stated)	3	-3	-6	.	-10	i	4	4
COc1ccc(S(=O)(=O)Nc2ccc3c(c2)C(=O)N([C@H](C)CO)C[C@H](C)[C@@H](CN(C)S(=O)(=O)c2c(C)noc2C)O3)cc1	4	2	-24	-3	.	.	.	-17

Following part
SMILES	MT1-MMP act inh	MT1-MMP act inh RFP	HIV Env fusion	Yeast UUG start	PABP FP inh	Rce1 inhib	eIF4H FP inh	CSC inhib	others
COc1ccc(NC(=O)CCCN2C(=O)C3C4C=CC(C4)C3C2=O)c(OC)c1 (configuration not stated)	1	-1	-27	-12	21	i	-10	.
COc1cccc(N2C(=NC(=O)C3CCCCC3)SC3CS(=O)(=O)CC32)c1 (configuration not stated)	-1	-2	7	-15	0	i	-4	-1
COc1ccc(CN2CCN(c3ccc(F)cc3)CC2)c(OC)c1OC	3	3	9	.	-5	i	-5	-5
CCn1c(=O)n(CC(=O)Nc2cc(OC)c(OC)c(OC)c2)c(=O)c2ccccc21	.	.	.	-8	7	i	2	-3
c1ccc(COC2CCCN(Cc3nc(-c4cnccn4)no3)C2)nc1 (configuration not stated)	1	5	11	.	3	i	-3	.
Cc1cc(=O)n2[nH]c(N3C(=O)CCC3=O)nc2n1	6	2	-98	-25	2	i	-2	2
CC(=O)N(c1ccc(C)cc1)C1C=CS(=O)(=O)C1 (configuration not stated)	-4	5	-3	-12	18	i	2	-1
O=C(Oc1ccc2c(-c3ccccc3)cc(=O)oc2c1)c1cccs1	-11	1	-61	.	-8	i	-8	-10
CCOC(=O)C1CCCN(Cc2c(C(=O)N3CCOCC3)nc3ccccn23)C1 (configuration not stated)	-6	-3	-8	.	9	i	0	-2
O=C(N/N=C/c1ccsc1)c1ccc2ccccc2n1	4	0	-2	.	11	i	-2	-6
Cc1cc(C(=O)OC(C)C(=O)Nc2cccc(S(=O)(=O)N3CCOCC3)c2)c(C)o1 (configuration not stated)	-10	-9	.	-14	-1	i	-8	1
CCCc1cc(=O)[nH]c(SCC(=O)c2[nH]c(C)c(C(=O)OCC)c2C)n1	.	.	-61	.	-4	i	1	-3
CCC1=C(OC(=O)N(CC)CC)N2C(=O)OC(=NCCOC)[C@]2(Cc2ccccc2)[C@H]2C1=CC[C@H]1C(=O)N(CC)C(=O)[C@H]12	-1	-5	0	3	12	i	2	2
COc1ccc(NC(=O)COC(=O)c2ccc(N3CCCC3=O)cc2)cc1OC	7	1	-32	-5	2	i	-4	2
Cc1cc(OCCCC(=O)N2CCCCC2)cc(C)c1Cl	3	2	.	-23	5	i	11	-3

Assay outcomes from PubChem.

Some of the compounds tested; the hit share may differ from the screen's.
